MT1-MMP act inh: inhibitors of human MT1-MMP activation | GFP/RFP ratio change, % at 20 µM | AID 651647 | HT1080 RFP-PRO-GFP cells, GFP/RFP ratio fluorescence, overnight; percent of plate control window, DMSO zero | 360,000 compounds, 0.061% hits | P50281;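 active = GFP/RFP ratio change of at least 30% with cell ATP level not reduced by more than half and red fluorescence within 50% of control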; also: strong numbers were not always called active
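Assay system: HT1080 RFP-PRO-GFP cells. Benchmarks: DMSO vehicle wells and RFP-L50D-GFP reporter cell wells. Times: overnight cell settling, then overnight compound exposure, 37 °C, 5% CO2. Compound: 20 µM single dose, 1% DMSO. Read-out basis: GFP/RFP fluorescence ratio.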
CSC inhib: cancer stem cell inhibition; cancer stem cell-like cells viability, luminescence; inhibition, % at 7.5 µM; 300,000 compounds, 1.1% hits; AID 2717;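 active = mean at 75% or more and at least half the replicates too; inconclusive = mean and replicates disagree; tested in HMLE shEcad cells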;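 also: 0% = median of negative and 100% = median of positive control wells; the first replicate is given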
eIF4H FP inh: inhibitors of RNA binding by human eIF4H | AID 2012 | inhibition, % at 35 µM | 290,000 compounds, 0.94% hits | eIF4H fluorescence polarization binding assay | Q15056;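 active = 50% or more with normal probe brightness, or confirmed in later tests; inconclusive = above 50% with abnormal brightness, or retests that disagree; inactive = below 50% or failed in later tests; about a fifth of its hits are not listed in these tables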;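 also: calls also rest on retests at 20 µM and on dose response follow-up; 0% = protein and probe with vehicle and 100% = probe without protein; strong numbers were not always called active; many hits fall short of the cut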
PABP FP inh: PABP-poly(A) binding inhibition; P11940; 290,000 compounds, 1% hits; PABP-poly(A) RNA binding, fluorescence polarization; inhibition, % at 35 µM;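 active = 50% or more with normal probe brightness, or confirmed in later tests; inconclusive = above 50% with abnormal brightness, or retests that disagree; inactive = below 50% or failed in later tests; about a fifth of its hits are not listed in these tables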;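 also: calls also rest on retests at 20 µM and on dose response follow-up; controls were probe without protein and protein plus probe with vehicle; some compounds called inactive have numbers as strong as hits; many hits fall short of the cut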
Target sequence (P11940 whole entry, looked up): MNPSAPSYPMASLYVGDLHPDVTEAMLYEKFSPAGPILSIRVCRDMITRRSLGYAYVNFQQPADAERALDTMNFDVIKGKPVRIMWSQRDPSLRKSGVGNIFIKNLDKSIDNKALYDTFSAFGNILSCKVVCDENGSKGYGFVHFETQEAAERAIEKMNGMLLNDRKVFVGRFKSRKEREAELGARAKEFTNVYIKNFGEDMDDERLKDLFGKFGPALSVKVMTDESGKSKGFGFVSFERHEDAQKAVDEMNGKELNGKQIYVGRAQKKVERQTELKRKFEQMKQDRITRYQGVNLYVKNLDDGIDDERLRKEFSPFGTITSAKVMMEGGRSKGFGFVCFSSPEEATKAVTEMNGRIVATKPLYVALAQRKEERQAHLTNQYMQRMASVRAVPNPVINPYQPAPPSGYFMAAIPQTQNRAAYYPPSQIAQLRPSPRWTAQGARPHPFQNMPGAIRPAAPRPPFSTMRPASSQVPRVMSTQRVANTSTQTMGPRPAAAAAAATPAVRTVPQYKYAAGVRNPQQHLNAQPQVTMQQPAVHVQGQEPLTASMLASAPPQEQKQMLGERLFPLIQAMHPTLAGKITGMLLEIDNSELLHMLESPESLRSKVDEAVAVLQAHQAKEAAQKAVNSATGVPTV
HIV Env fusion: blocks HIV Env-driven cell-cell fusion; HeLa-JRFL Env/CEM21 cell fusion, luciferase; inhibition, % at 12.3 µM; 360,000 compounds, 1.1% hits;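 active = mean replicate inhibition score of at least 50 and every replicate individually at or above 50; inconclusive = only one of the two criteria met; inactive = mean below 50 and not all replicates reaching 50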;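 also: 0% = plate neutral controls and 100% = maraviroc near 300 nM; one replicate is shown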
Rce1 inh: inhibitors of yeast Ras-converting enzyme; Q03530; 290,000 compounds, 0.27% hits; calls only; yeast membranes, quenched prenylated peptide cleavage fluorescence;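 active = fall in fluorescence gain of 50% or more versus controls, with final raw signal at or below 3038400; inconclusive = same 50% fall but final raw signal above 3038400; inactive = fall in fluorescence gain under 50%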;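 also: plate controls were neutral control wells for no effect and wells lacking membranes for full effect; tested at 10 µM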
Target sequence (Q03530 whole entry, looked up): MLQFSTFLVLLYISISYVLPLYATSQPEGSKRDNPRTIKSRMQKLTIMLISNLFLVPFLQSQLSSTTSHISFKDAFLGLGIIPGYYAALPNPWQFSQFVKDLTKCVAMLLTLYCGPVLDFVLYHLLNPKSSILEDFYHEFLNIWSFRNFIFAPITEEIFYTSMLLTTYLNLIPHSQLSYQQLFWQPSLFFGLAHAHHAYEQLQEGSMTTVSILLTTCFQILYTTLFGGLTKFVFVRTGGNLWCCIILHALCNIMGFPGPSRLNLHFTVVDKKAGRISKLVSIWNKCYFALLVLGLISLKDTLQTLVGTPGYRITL
Yeast UUG start: yeast start codon fidelity modulation. activity score, % at 18.7 µM. AID 602363. 350,000 compounds, 0.13% hits. S. cerevisiae UUG-firefly luciferase reporter, luminescence/redox ratio;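 active = replicate mean at a twofold rise or more, about +100% in these data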;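 also: firefly luciferase made from a UUG start codon reports start codon fidelity; reporter light over untreated wells divided by growth signal over untreated wells; some hits fall short of that in this replicate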
eIF4H FP inh retest: also measured in eIF4H FP inh; calls as there; inhibition, %; compound at 20 µM; confirmation average;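 mean of two retest wells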
PABP FP inh retest: second read-out of PABP FP inh, no call of its own (marks repeat the call); inhibition, %; compound at 20 µM; confirmation repeats;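 mean of two retest wells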
MT1-MMP act inh RFP: also measured in MT1-MMP act inh; calls as there; RFP signal change, %; measured here: RFP expression control read;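 0 = vehicle wells; hits needed this value within 50% of zero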
An asterisk follows results filed as active; i = inactive; ? = inconclusive; · = no result given.

SMILES | MT1-MMP act inh | MT1-MMP act inh RFP | CSC inhib | eIF4H FP inh | PABP FP inh | HIV Env fusion | Rce1 inh | Yeast UUG start | others
CCOc1ccc(-c2nc(CN(Cc3ccccc3)C[C@@H]3CCC(=O)N3)c(C)o2)cc1 | -3 | -7 | -1 | -7 | -4 | 1 | i | ·
CC(C)(C)NC(=O)C(=O)NN=C1CCCCCCC1 | -1 | 0 | -4 | -10 | -10 | 8 | i | -5
Cc1ccc(S(=O)(=O)NN=C2CCC(C(C)(C)C)CC2)cc1[N+](=O)[O-] (stereo unspecified) | 2 | 3 | -16 | -1 | -12 | · | i | ·
CC(=O)Nc1cccc(NC(=O)C(F)(F)F)c1 | 0 | 2 | · | 9 | 1 | -1 | i | ·
CCOC(=O)NN1C(=O)c2ccccc2NC1c1ccccc1O (stereo unspecified) | 0 | -2 | -1 | -3 | -1 | · | i | -12
CC1=C(C(=O)N2CCOCC2)CC(CC(=O)NCCCN(C)C)C(=O)N1CCC1=CCCCC1 (stereo unspecified) | 1 | -2 | · | · | · | 5 | · | -8
COc1ccc(NC(=O)CSc2nnc(-c3ccccc3C)n2N)cc1 | 5 | 6 | -3 | 0 | -3 | -155 | i | -12
CC(=O)Nc1ccc(NC(=O)C(C)Sc2nc3ccccc3c(=O)n2Cc2ccco2)cc1 (stereo unspecified) | 2 | 2 | -18 | · | · | · | i | -2
COc1ccc(-c2csc(N3CCN(C(=O)c4ccccc4)CC3)n2)cc1 | -4 | -5 | 3 | -9 | 1 | -13 | i | -11
CC(C(=O)Nc1ccc(S(N)(=O)=O)cc1)N1CCc2ccccc21 (stereo unspecified) | -1 | 1 | -2 | -3 | -6 | -2 | i | ·
O=c1oc(-c2cccc(Cl)c2)nc2c1cnn2-c1ccccc1 | 8 | 4 | · | -6 | 3 | -17 | · | -10
O=C(Nc1cccc(C(F)(F)F)c1)c1cnccn1 | 2 | -1 | -1 | -1 | -6 | -5 | i | ·
C#CCOc1ccc(/C=C2/C(=O)ON=C2C)cc1Cl | 6 | 4 | 6 | 7 | 24 | 0 | i | -21
CC1(C(=O)NC2CCCC2)CCC(=O)N1Cc1cccs1 (stereo unspecified) | 2 | 3 | -5 | -6 | -3 | -20 | i | -15
O=C(Nc1ccc(NC(=O)C2CC2)nc1)c1ccncc1 | -1 | 2 | 5 | 5 | 3 | · | i | 5
CCOC(=O)NNc1ccccc1 | 1 | -2 | 12 | -14 | -4 | -5 | i | ·
Cc1cc(C)c(S(=O)(=O)c2ccccc2)c(=O)[nH]1 | 1 | 8 | -11 | -12 | -4 | -10 | i | ·
Oc1ccc(-c2cnc3c(Nc4cccc(OC(F)(F)C(F)F)c4)nccn23)cc1 | -2 | -27 | · | · | · | -13 | · | -11
COc1ccc(N2CCN(Cc3nnnn3C3CCCCC3)CC2)cc1 | 9 | -1 | 13 | 3 | -3 | -7 | i | -10
CC(O)Cc1cn([C@@H](CCCCNC(=O)OC(C)(C)C)C(=O)N2CCN(C(=O)OC(C)(C)C)CC2)nn1 (stereo partly specified) | 4 | 6 | -1 | 7 | -4 | 5 | i | 11
CC(C)NC1CCC(Nc2ccnc3cc(Cl)ccc23)CC1 (stereo unspecified) | 3 | 2 | · | · | · | -3 | · | 3
CCc1cccc(C)c1NC(=O)CCCn1c(=O)c2cccn2c2cccnc21 | 1 | 2 | -2 | 25 | 15 | -6 | i | -18
COc1cc(C(=O)N2CCN(C(=O)c3ccco3)CC2)c([N+](=O)[O-])cc1OC | -2 | -1 | -1 | 1 | -9 | 12 | i | ·
O=C(c1cc2cc(Cl)ccc2o1)N1CCCC1 | -3 | 0 | 4 | -1 | 0 | -25 | i | -12
CC(C)CCc1noc(CN(C)CCC2CCOCC2)n1 | 2 | 1 | -14 | 0 | 6 | -11 | i | -19
O=C(CSc1nnc(CNC(=O)c2ccco2)o1)Nc1cccc(Cl)c1 | 2 | 3 | -7 | -2 | 3 | 1 | i | 5
Cc1cc(NC(=O)NCc2ccco2)ccc1NC(=O)NCc1ccco1 | 7 | 4 | · | · | · | -2 | · | -6
CC1=C[C@H](C)[C@H](c2c(F)cccc2Cl)CC1=O | 4 | 4 | -5 | -10 | 10 | · | i | -4
Cn1c(CCNC(=O)C(C)(C)C)nc2ccccc21 | 0 | 2 | -11 | -16 | -2 | 34 | i | -12
CC(C)N1C(=O)CCC1C(=O)O (stereo unspecified) | 2 | 1 | · | -3 | 0 | 11 | i | -4
Cc1ccc(-n2nc3c(=O)n(C(C)C(=O)NCc4ccc(Cl)cc4)nc(C)c3c2C)cc1 (stereo unspecified) | 3 | -26 | -13 | 2 | -4 | 20 | i | -8
Cc1ccc(-c2nn(-c3ccccc3)cc2C(N)=O)o1 | -10 | -1 | -15 | -4 | -9 | -4 | i | ·
COc1ccc(OC)c(NC(=O)CSc2nnnn2-c2ccccc2F)c1 | 0 | -3 | · | -7 | -1 | · | i | 0
CSc1ncc(CN2CCN(CC=C(C)C)C(CCO)C2)cn1 (stereo unspecified) | -1 | 4 | 8 | -3 | 5 | -17 | · | ·
O=C(COC(=O)CCC(=O)c1cccs1)Nc1ncc(Cl)cc1Cl | -2 | -3 | -4 | 8 | 14 | 2 | i | -13
COc1ccc(C(c2nnnn2C(C)(C)C)N2CCN(c3nc4ccccc4s3)CC2)cc1 (stereo unspecified) | 0 | 0 | · | -1 | 4 | · | i | -6
COc1ccc(CCNC(=O)c2cc3c(=O)n4cccc(C)c4nc3n(Cc3ccco3)c2=N)cc1OC | -11 | -10 | 74 | 63* | 28 | -11 | i | -7 | eIF4H FP inh retest=71*;PABP FP inh retest=13
Cc1c(C(=O)N2CC3(CC(c4cccc(NC(=O)[C@H]5CCC(=O)N5)c4)=NO3)C[C@@H]2C(N)=O)cc([N+](=O)[O-])cc1[N+](=O)[O-] (stereo partly specified) | 2 | 3 | -13 | 2 | 12 | 17 | i | 20
N#CC1=C(N)Oc2cc(N)ccc2C1c1ccccc1Cl (stereo unspecified) | -9 | 0 | -3 | 11 | 32 | 21 | i | -15
Cc1ccc(-c2nn(Cc3ccccc3)cc2C(=O)NCC2CCCO2)cc1 (stereo unspecified) | -1 | -3 | · | · | · | 2 | · | -22
CCCCc1nnc2c(N(C)S(=O)(=O)c3ccccc3)nc3ccccc3n12 | 1 | -3 | 1 | -3 | -4 | -3 | i | -14
O=S(=O)(NC1=NCCCCC1)c1ccc(F)cc1 | 0 | 1 | -10 | 5 | -1 | 18 | i | -17
CCN(CC)S(=O)(=O)c1ccc(OC(C)C)c(NC(=O)C2=COCCO2)c1 | 4 | 2 | -18 | · | · | 32 | i | -4
O=C(O)C1CCC(=O)N1Cc1ccc(F)cc1 (stereo unspecified) | · | · | 8 | 0 | 4 | · | i | -4
Cc1c(N=C/C=C/c2ccccc2)cnn1C | -3 | 0 | -4 | -7 | -6 | · | i | -15
C=CCSC1=NNC(c2ccc(C(C)(C)C)cc2)=NN1 | 1 | -1 | -5 | -6 | 6 | -34 | i | -1
O=C(NC(=S)N(CC1CCC1)CC1CCCO1)c1cccc([N+](=O)[O-])c1 (stereo unspecified) | 4 | 0 | 20 | 2 | 1 | 1 | i | ·
CCOc1ccccc1NC(=O)C(NCCN(C)C)c1ccccc1 (stereo unspecified) | -5 | -3 | -22 | 5 | 22 | 5 | i | ·
COCC(=O)N1CCC2CC1c1c(-c3ccc(C(F)(F)F)cc3)cccc12 (stereo unspecified) | 2 | 1 | · | · | · | -45 | · | 8
COCCCn1nnnc1SCC(=O)N1CCN(C(=O)c2ccco2)CC1 | 0 | 2 | 8 | -8 | 4 | 5 | i | -6
Cc1ccc(-c2nn(C)c(=O)c3ccccc23)cc1CNC(=O)/C=C/c1ccccc1 | 3 | 1 | 21 | -1 | 8 | -4 | i | -28
COc1cc(S(=O)(=O)NCc2ccccc2)ccc1F | 0 | -3 | -5 | 1 | -5 | · | i | -5
Cn1c(SCC#N)nnc1-c1ccc2c(c1)OCO2 | -2 | 4 | -5 | 3 | -3 | -72 | · | -13
CC(C)C[C@H]1CN=C(Nc2ccccc2)N1CCCC1CCCC1 | -6 | -4 | 25 | -4 | -4 | -8 | ? | 4

Ordered by length of the SMILES (rising): 16 of the compounds above
SMILES | MT1-MMP act inh | MT1-MMP act inh RFP | CSC inhib | eIF4H FP inh | PABP FP inh | HIV Env fusion | Rce1 inh | Yeast UUG start | others
CCOC(=O)NNc1ccccc1 | 1 | -2 | 12 | -14 | -4 | -5 | i | ·
Cc1c(N=C/C=C/c2ccccc2)cnn1C | -3 | 0 | -4 | -7 | -6 | · | i | -15
O=C(c1cc2cc(Cl)ccc2o1)N1CCCC1 | -3 | 0 | 4 | -1 | 0 | -25 | i | -12
O=S(=O)(NC1=NCCCCC1)c1ccc(F)cc1 | 0 | 1 | -10 | 5 | -1 | 18 | i | -17
O=C(Nc1cccc(C(F)(F)F)c1)c1cnccn1 | 2 | -1 | -1 | -1 | -6 | -5 | i | ·
C#CCOc1ccc(/C=C2/C(=O)ON=C2C)cc1Cl | 6 | 4 | 6 | 7 | 24 | 0 | i | -21
O=C(Nc1ccc(NC(=O)C2CC2)nc1)c1ccncc1 | -1 | 2 | 5 | 5 | 3 | · | i | 5
CCOC(=O)NN1C(=O)c2ccccc2NC1c1ccccc1O (stereo unspecified) | 0 | -2 | -1 | -3 | -1 | · | i | -12
Cc1cc(NC(=O)NCc2ccco2)ccc1NC(=O)NCc1ccco1 | 7 | 4 | · | · | · | -2 | · | -6
Cc1ccc(-c2nn(Cc3ccccc3)cc2C(=O)NCC2CCCO2)cc1 (stereo unspecified) | -1 | -3 | · | · | · | 2 | · | -22
CCc1cccc(C)c1NC(=O)CCCn1c(=O)c2cccn2c2cccnc21 | 1 | 2 | -2 | 25 | 15 | -6 | i | -18
CCCCc1nnc2c(N(C)S(=O)(=O)c3ccccc3)nc3ccccc3n12 | 1 | -3 | 1 | -3 | -4 | -3 | i | -14
COCC(=O)N1CCC2CC1c1c(-c3ccc(C(F)(F)F)cc3)cccc12 (stereo unspecified) | 2 | 1 | · | · | · | -45 | · | 8
O=C(NC(=S)N(CC1CCC1)CC1CCCO1)c1cccc([N+](=O)[O-])c1 (stereo unspecified) | 4 | 0 | 20 | 2 | 1 | 1 | i | ·
Cc1ccc(-c2nn(C)c(=O)c3ccccc23)cc1CNC(=O)/C=C/c1ccccc1 | 3 | 1 | 21 | -1 | 8 | -4 | i | -28
CCOc1ccc(-c2nc(CN(Cc3ccccc3)C[C@@H]3CCC(=O)N3)c(C)o2)cc1 | -3 | -7 | -1 | -7 | -4 | 1 | i | ·
